# Assay outcomes deposited in PubChem BioAssay by Vanderbilt University.
# GIRK2 act: activators of human GIRK2 potassium channels; hit rate 0.05% among 63,000; P48051; HEK293-GIRK2 thallium flux, Thallos fluorescence; calls only for hits at 25 µM; AID 1259325;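 active = among the strongest 0.2% of first-round signals and kept after retests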;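 note: first round at about 10 µM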
# Target sequence (P48051 whole entry, looked up): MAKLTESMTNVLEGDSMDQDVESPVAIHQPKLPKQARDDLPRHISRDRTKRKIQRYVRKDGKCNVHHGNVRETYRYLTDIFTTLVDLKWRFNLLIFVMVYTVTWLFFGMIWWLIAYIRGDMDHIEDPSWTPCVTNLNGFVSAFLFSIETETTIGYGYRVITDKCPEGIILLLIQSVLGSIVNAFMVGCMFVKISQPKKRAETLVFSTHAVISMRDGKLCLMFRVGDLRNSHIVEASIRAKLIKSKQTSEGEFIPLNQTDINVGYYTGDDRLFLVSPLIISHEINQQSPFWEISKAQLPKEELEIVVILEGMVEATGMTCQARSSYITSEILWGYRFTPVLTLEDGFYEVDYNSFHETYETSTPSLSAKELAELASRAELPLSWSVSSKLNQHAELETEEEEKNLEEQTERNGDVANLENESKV
# Calls only; i = inactive.
GIRK2 act,Compound
i,COc1ccccc1OCC(=O)NCC1(c2cccs2)CCOCC1
i,O=C(c1ccc(N2C(=O)CCC2=O)cc1)N1CCN(Cc2nc(C3CC3)cs2)CC1
i,COCC(C)(O)CNC(=O)C(=O)Nc1ccccc1SC (centres undefined)
i,CCOc1ccccc1NC(=O)c1cc2cccnc2n(C)c1=O
i,CCCCOC(=O)c1ccc(NC(=O)c2nnn(-c3ccc(Br)cc3)n2)cc1
i,CC(=O)Nc1ccc(C2=NN(C(=O)C(C)C)C(c3ccco3)C2)cc1 (centres undefined)
i,O=C(/C=C/c1ccco1)NCC1(O)CCc2ccccc2C1 (centres undefined)
i,Clc1ccc2c(c1)C=C(c1nnc(-c3ccncc3)o1)CO2
i,O=C(CCc1ccccc1)N1CCC(CSCc2ccco2)CC1
i,CC(C)Oc1ccc(-c2noc(CSc3nc(-c4ccccc4)cc(=O)[nH]3)n2)cc1
i,O=C(NCc1ccc2c(c1)OCO2)C(=O)NCC1CCN(C(=O)c2ccoc2)CC1
i,CC(Cc1ccco1)NC(=O)C(C)(C)C (centres undefined)
i,O=C(Cn1ccc2ccccc21)NCc1ccc(OC(F)(F)F)cc1
i,O=C(Nc1ccc2c(c1)CCCN2C(=O)c1ccccc1)c1ccco1
i,COc1ccc(C2CC3C4NN=C(SCC(=O)Nc5cccc(C(C)=O)c5)N4C=CN3N2)cc1 (centres undefined)
i,Cn1c(C2CCCN(S(C)(=O)=O)C2)nn(CC(=O)NCc2ccc(F)cc2)c1=O (centres undefined)
i,O=C(c1cccc(Cl)c1)N1CCOCC1CO (centres undefined)
i,COc1ccc(-c2cc(N3CCC(C(=O)Nc4ccccc4SC)CC3)ncn2)cc1
i,N#CCOc1ccc2c(=O)c(Oc3ccccc3Br)coc2c1
i,CCCCNC(=O)C(=O)c1cn(CC(=O)N2CCOCC2)c2ccccc12
i,CCn1cnc2c(-c3ccccc3)cn(CC(=O)Nc3cccc(Cl)c3)c2c1=O
i,COc1ccc(CC(=O)N2CCN(c3cc(-n4cccc4)ncn3)CC2)cc1
i,COC(=O)c1ccc(NC(=O)Cn2nc3c4cc(-c5ccc(F)cc5)nn4ccn3c2=O)cc1
i,CCCn1c(-n2nc(C)cc2C)nc2c1c(=O)n(CC(N)=O)c(=O)n2C
i,COc1cccc(CNC(=O)Cn2cnc3c(-c4ccc(Cl)cc4)csc3c2=O)c1OC
i,O=C(Nc1ccc2c(c1)CCCN2C(=O)c1cccs1)Nc1cccs1
i,Cc1cccc2c1ncn1c(=O)n(CC(=O)Nc3ccc(Cl)cc3F)nc21
i,Cn1nc(N2CCC(C(=O)Nc3ccc4cn[nH]c4c3)CC2)ccc1=O
i,O=C(Nc1cccc(F)c1)c1nc(-c2cn(-c3ccc(F)cc3)nn2)no1
i,O=C(Nc1ccccc1Br)c1cn(CC(O)c2ccccc2)nn1 (centres undefined)
i,CCc1cc(=O)[nH]c2cc(NC(=O)c3cn(C)nn3)ccc12
i,COc1ccccc1NC(=O)/C=C/c1ccc(C(C)(C)C)cc1
i,O=C(NCc1cccs1)c1ccc(S(=O)(=O)NCc2ccc3c(c2)OCO3)o1
i,COc1ccc(NS(=O)(=O)c2ccc(N3C(=O)CCC3=O)cc2)c(OC)c1
i,NS(=O)(=O)c1ccc(CCNC(=O)CCn2cnc3c([nH]c4ccc(F)cc43)c2=O)cc1
i,CC1=C(C(N)=O)C(c2ccccc2Cl)N2C(=O)CSC2=N1 (centres undefined)
i,Cc1cc(C)c(S(=O)(=O)N2CCN(Cc3ccccc3)CC2)c(C)c1N(C)S(C)(=O)=O
i,CCc1nccn1CC1CCN(C(=O)c2cc3ccccc3[nH]2)CC1
i,Cc1cc(C)n(-c2ncc(NC(=O)Nc3ccc4c(c3)OCO4)cn2)n1
i,N#C/C(=C\Nc1ccc2c(c1)OCO2)c1nc2ccccc2s1
i,COCc1nc2ccccc2n1CCc1ccccc1
i,NC(=O)c1ccccc1OCC#CCNC(=O)CCS(=O)(=O)c1ccccc1
i,Cc1cc(C)n(-c2ccc(=O)n(CCNC(=O)c3ccc4nsnc4c3)n2)n1
i,COc1ccccc1NC(=O)c1n[nH]n2c1nc(=O)c1cc(F)ccc12
i,COc1ccc(C(=O)NC2CCN(c3ccc(-c4nc(C)no4)cn3)C2)cc1F (centres undefined)
i,O=c1cc(CN2CCN(c3ccccc3F)CC2)c2cc3c(cc2o1)CCC3
i,Cc1cc(C(F)(F)F)nc(CCNC(=O)C2CCN(S(C)(=O)=O)CC2)n1
i,CCOC(=O)N1CCN(C(c2ccc(F)c(F)c2)c2sc3nc(CC)nn3c2O)CC1 (centres undefined)
i,O=C(Cc1cccs1)NCC1CCN(C(=O)Oc2ccccc2)CC1
i,CCCCc1ccc(-n2c(C)cn3c4c(=O)n(CCN5CCOCC5)c(=O)n(C)c4nc23)cc1
i,CCn1c(SCC(=O)OC)nc2c1c(=O)[nH]c(=O)n2C
i,Cc1cc(=O)[nH]c(-n2nc(-c3ccco3)cc2NC(=O)c2ccc(F)c(F)c2)n1
i,CC(C)NC(=O)N1CCC(CSCc2ccco2)CC1
i,O=c1cccnn1CCNS(=O)(=O)c1ccccc1Cl
i,COc1ccc(NC(=O)Cn2cc(S(=O)(=O)N3CCCCC3)ccc2=O)cc1
i,COc1ccc(NC(=O)c2c(O)c3c(C)c(C(=O)N(C)C)sc3[nH]c2=O)cc1OC
i,Cc1ccc(N2CCN(C(=O)/C=C/c3ccco3)CC2)nn1
i,COCCCNC(=O)c1cc(-c2ccc(F)cc2)c[nH]1
i,COCC1CCCN(C(=O)c2ccc3cc[nH]c3c2)C1 (centres undefined)
i,Cc1ccc(N2CC(C)Cn3c2nc2c3c(=O)n(CC(=O)O)c(=O)n2C)cc1C (centres undefined)

# Arranged by SMILES length (smallest number first): some entries from above.
GIRK2 act,Compound
i,Cc1ccc(N2CCN(C(=O)/C=C/c3ccco3)CC2)nn1
i,O=C(Cc1cccs1)NCC1CCN(C(=O)Oc2ccccc2)CC1
i,O=c1cc(CN2CCN(c3ccccc3F)CC2)c2cc3c(cc2o1)CCC3

# Next records
GIRK2 act,Compound
i,Cc1cc(C)c2c(n1)sc1c(=O)n(CC(=O)NC3CCCC3)cnc12
i,Cc1ccc(NC(=O)Cn2c(=O)nc(N3CCC(C)CC3)c3ccccc32)cc1
i,COC(=O)Cn1c(=O)c2c(nc3n(-c4ccccc4C)c(-c4ccccc4)cn23)n(C)c1=O
i,Cc1ccc(-n2nnc(C(=O)N3CCN(Cc4ccccc4)CC3)c2-c2cccnc2)cc1
i,Cc1noc(-c2cccn3c(=O)n(Cc4c(C)noc4C)nc23)n1
i,O=C(Nc1nc2ccc3ccccc3c2s1)C1CCN(S(=O)(=O)c2cccs2)CC1
i,Cc1cc(=O)n(CCNC(=O)c2nc3nc(C)cc(C)n3n2)cn1
i,Cc1ccnc(Nc2nc(CC(=O)NCCn3nc(-c4ccco4)ccc3=O)cs2)c1
i,COc1cccc2cc(C(=O)NCc3cc(-c4ccccn4)n(C)n3)c(=O)oc12
i,O=C(NCC(O)c1ccoc1)c1ccccc1C(F)(F)F (centres undefined)
i,Cn1c(-c2nc(C(=O)NCCCn3ccnc3)cs2)cc2ccccc21
i,O=S(=O)(c1ccc2nncn2c1)N(Cc1ccccc1)c1cccc(Cl)c1
i,COc1ccc(NC(=O)CN2C(=O)C3(SCC(=O)N3c3ccc(OC)cc3)c3ccccc32)cc1 (centres undefined)
i,COc1cc(C)ccc1OCC(=O)Nc1cc(N2CCCC2)ncn1
i,COc1ccc2c(c1)c(CC(=O)NNCc1ccccc1)c(C)n2C(=O)c1ccc(Cl)cc1
i,COc1cccc(C2=C(c3cn(C)c4ccc(Cl)cc34)C(=O)NC2=O)c1
i,CCCCOc1ccc(C(=O)NCC(C)(O)CSC)cc1 (centres undefined)
i,CC(NC(=O)c1cn(CC(O)c2ccccc2)nn1)c1ccccc1 (centres undefined)
i,CCOc1ccc2ccccc2c1C(=O)Nc1ccc(C)c(N2CCCC2=O)c1
i,COc1ccc(-c2ccc(SCc3nc(-c4cccs4)no3)nn2)cc1OC
i,O=C(NCCC(O)c1ccoc1)c1cccc(C(F)(F)F)c1 (centres undefined)
i,CC1CCN(c2nc(=O)n(CC(=O)Nc3cc(F)cc(F)c3)c3ccccc23)CC1
i,O=C(Cn1nnn(-c2ccc(NC(=O)Nc3ccc4c(c3)OCO4)cc2)c1=O)NC1CC1
i,CCN(CC)CCCN1C(=O)C(O)=C(C(=O)c2cc3ccccc3o2)C1c1ccncc1 (centres undefined)
i,CSc1cccc(NC(=O)c2cc(=O)c(OCc3ccc(F)cc3)cn2C)c1
i,COc1ccc(-c2nn(-c3ccccc3)cc2C2CC(c3ccco3)=NN2S(C)(=O)=O)cc1 (centres undefined)
i,COc1cc(Cl)cc2c1OCC(=O)N(c1ccc(F)cc1Br)C2
i,O=C(/C=C/c1ccc2c(c1)OCO2)NCc1n[nH]c(=O)c2ccccc12
i,CCOc1ccccc1Oc1coc2cc(OC(=O)c3cccs3)ccc2c1=O
i,O=C(c1cc(=O)c2ccccc2o1)N1CCC(Oc2nc3c(Cl)cccc3s2)CC1

# Some of the entries so far, bar-delimited.
SMILES | GIRK2 act
COc1ccc2c(c1)c(CC(=O)NNCc1ccccc1)c(C)n2C(=O)c1ccc(Cl)cc1 | i
COc1cccc(C2=C(c3cn(C)c4ccc(Cl)cc34)C(=O)NC2=O)c1 | i
CCCCOc1ccc(C(=O)NCC(C)(O)CSC)cc1 (centres undefined) | i
CC(NC(=O)c1cn(CC(O)c2ccccc2)nn1)c1ccccc1 (centres undefined) | i
CCOc1ccc2ccccc2c1C(=O)Nc1ccc(C)c(N2CCCC2=O)c1 | i
COc1ccc(-c2ccc(SCc3nc(-c4cccs4)no3)nn2)cc1OC | i
O=C(NCCC(O)c1ccoc1)c1cccc(C(F)(F)F)c1 (centres undefined) | i
CC1CCN(c2nc(=O)n(CC(=O)Nc3cc(F)cc(F)c3)c3ccccc23)CC1 | i
O=C(Cn1nnn(-c2ccc(NC(=O)Nc3ccc4c(c3)OCO4)cc2)c1=O)NC1CC1 | i
CCN(CC)CCCN1C(=O)C(O)=C(C(=O)c2cc3ccccc3o2)C1c1ccncc1 (centres undefined) | i
CSc1cccc(NC(=O)c2cc(=O)c(OCc3ccc(F)cc3)cn2C)c1 | i
COc1ccc(-c2nn(-c3ccccc3)cc2C2CC(c3ccco3)=NN2S(C)(=O)=O)cc1 (centres undefined) | i
COc1cc(Cl)cc2c1OCC(=O)N(c1ccc(F)cc1Br)C2 | i
O=C(/C=C/c1ccc2c(c1)OCO2)NCc1n[nH]c(=O)c2ccccc12 | i
CCOc1ccccc1Oc1coc2cc(OC(=O)c3cccs3)ccc2c1=O | i
O=C(c1cc(=O)c2ccccc2o1)N1CCC(Oc2nc3c(Cl)cccc3s2)CC1 | i

# Later entries
GIRK2 act,Compound
i,Cn1cnc(S(=O)(=O)Nc2ccc3c(c2)C(=O)N2CCCCC2CCO3)c1 (centres undefined)
i,C[C@]12CC(=O)[C@@H]3C[C@@]1(O[C@@H]1O[C@H](CO)[C@@H](O)[C@H](O)[C@H]1O)C3(CO)CO2
i,Cc1nnsc1C(=O)N(Cc1cccs1)Cc1cccn1C
i,O=C(NC(C(=O)N1CCN(C(=O)c2cccc(F)c2)CC1)S(=O)(=O)c1ccccc1)c1ccco1 (centres undefined)
i,Cc1cc(C)n(-c2nc(CCNC(=O)c3ccccc3C)cs2)n1
i,O=C(CN1C(=O)CCC1=O)N1CCC(Oc2ncccc2Cl)CC1
i,Cc1ccc(NC(=O)Cn2ncn3nc(-c4ccc(F)cc4)cc3c2=O)cc1F
i,COc1ccc(CNC(=O)Nc2ccc(-n3nnc(C(=O)N(C)C)n3)cc2)cc1
i,COc1ccc(Cn2c(-n3nc(C)cc3C)nc3c2c(=O)[nH]c(=O)n3C)cc1
i,CN1CCN(c2ncc(NC(=O)CCCc3ccccc3)cn2)CC1
i,COc1cccc(CSc2nc(CC(=O)N3CCCc4ccccc43)cc(=O)[nH]2)c1
i,O=C(Cn1cnc2ccccc2c1=O)N1CC(c2nc(-c3cccc(C(F)(F)F)c3)no2)C1
i,COc1cccc(Cn2nc3ccc(-c4ccccc4)nn3c2=O)c1
i,O=C1c2oc3ccc(Cl)cc3c(=O)c2C(c2cccc(F)c2)N1Cc1ccco1 (centres undefined)
i,CCOC(=O)N1CCN(C(=O)C2CSc3nc(C)c(CC)c(=O)n3C2)CC1 (centres undefined)
i,O=C(CSc1ccc(F)cc1)NCC(O)c1ccc2c(c1)CCO2 (centres undefined)
i,NC(=O)CSc1nnc(N2CCN(C(=O)c3ccccc3[N+](=O)[O-])CC2)s1
i,O=C(Nc1ccc2c(c1)C(=O)NCC2)NC(c1ccccc1)c1ccccc1
i,COc1cc(C)c(C)cc1S(=O)(=O)Nc1ccc2c(c1)CCC(=O)N2
i,CC(C)(C)OCC(O)CN(CCO)CCO (centres undefined)
i,CC(Cc1ccco1)NC(=O)C(C)Oc1ccccc1 (centres undefined)
i,COC(=O)CC(CCCCCCCCCCCC(CCCCCC(C)O)OC1OC(CO)C(O)C(O)C1O)OC1OC(CO)C(O)C(O)C1O (centres undefined)
i,O=C(Cc1ccc(F)cc1)NCC(O)c1cccc2ccccc12 (centres undefined)
i,Cn1nc(C(=O)N2CC3(COC(C)(C)OC3)C2)ccc1=O
i,COCCN1COc2ccc3c(=O)c(-c4ccccc4OC)c(C)oc3c2C1
i,Nc1nc(Cl)cc(Nc2ccccc2C(=O)O)n1
i,CNC(=O)c1ccc(OCc2nc(C)cs2)cc1
i,Cc1nn(-c2nc3c(c(=O)n(CCN4CCOCC4)c(=O)n3C)n2C(C)C)c(C)c1C
i,CCOc1ccccc1C(=O)N1CCN(C(=O)C2CC2c2ccc3c(c2)OCO3)CC1 (centres undefined)
i,O=C(Cc1cc(=O)[nH]c(SCc2cccc(Cl)c2)n1)N1CCCC1
i,O=C(Cn1cnc2ccccc2c1=O)N1CC(c2nc(-c3ccccn3)no2)C1
i,Cc1cc(C)c(NC(=O)Cn2nc(-c3cccc(Br)c3)ccc2=O)c(C)c1
i,COc1cccc(N2CC(C(=O)OC3CN(c4nc5c(F)cc(F)cc5s4)C3)CC2=O)c1 (centres undefined)
i,COc1ccc(S(=O)(=O)N(CCc2cccs2)Cc2ccoc2)cc1F
i,COc1cccc(CNC(=O)Cn2cccc(-c3nc(-c4ccc(Cl)cc4)no3)c2=O)c1
i,O=C(CCCc1ccccc1)N1CCN(c2cc(Nc3ccccn3)ncn2)CC1
i,Cc1cc(C)c(C)c(S(=O)(=O)n2ccnc2)c1C
i,O=C(c1cc(-c2ccc(F)cc2)c[nH]1)N1CCN(c2ccccn2)CC1

# The list is partial; count on the stated rates, not on these rows.
